High-throughput results (PubChem)
Rango release inh: inhibition of RanGTP-driven Rango-importin beta dissociation | Potency, µM (highest dose often 46.1 µM), without a hit: at the top dose activity change, negative = inhibition | O95149+P62826 | 0.071% of 340,000 active | Biochemical FRET Rango-importin beta, RanGTP-induced dissociation; active means falling FRET ratio curve, often poorly fitted, with flat reads before Ran was added; inconclusive means other falling curves, or compound fluorescence or quenching; inactive means flat or rising ratio curve;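 further: potency means the concentration at half of the fitted maximal effect; % of control where 0% means no effect; nearly all actives have a fitted effect of over 45% in size; -100% = wells without RanGTP and RCC1; the record marks most hits as doubtful in a second field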
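Rango (0.1 uM)–importin beta (0.25 uM) complex; RanGTP-RCC1 trigger; 45 min RT; CFP/YFP FRET read.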
GLA inh pH 4.5: alpha-galactosidase A (human) inhibition, pH 4.5; activity change, negative = inhibition, % at 105 µM; AID 1467; P06280; purified enzyme, 4-MU-alpha-Gal fluorescence, pH 4.5; 230,000 tested, under 10 active; inconclusive = small, poorly fitted or top-dose-only inhibition, or a rising curve; inactive = flat fitted curve, though single readings scatter; no compound was filed as active;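 further: 0% = full activity with enzyme and -100% = basal without enzyme; dose as in the result columns while the protocol names 77 µM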
Target sequence (P06280 whole entry, looked up): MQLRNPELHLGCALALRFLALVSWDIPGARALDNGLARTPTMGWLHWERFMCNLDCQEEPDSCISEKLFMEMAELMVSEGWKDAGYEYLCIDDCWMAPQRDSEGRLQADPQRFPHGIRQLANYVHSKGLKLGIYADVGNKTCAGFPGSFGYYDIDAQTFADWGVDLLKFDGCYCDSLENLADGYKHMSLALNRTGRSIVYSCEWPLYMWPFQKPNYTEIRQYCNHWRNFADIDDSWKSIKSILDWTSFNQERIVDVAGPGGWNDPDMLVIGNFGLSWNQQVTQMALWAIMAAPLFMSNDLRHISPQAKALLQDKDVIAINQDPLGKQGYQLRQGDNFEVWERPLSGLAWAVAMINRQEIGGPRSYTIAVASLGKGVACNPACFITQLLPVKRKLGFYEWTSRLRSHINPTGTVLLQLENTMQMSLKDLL
Rango-impB inh: prevents formation of the Rango-importin beta complex. Rango CFP/YFP FRET sensor + importin beta, 45 min. 0.031% of 340,000 active. Potency, µM (doses to about 92.2 µM), without a hit: at the highest dose inhibition of complex formation. Q14974; active = rising FRET ratio curve, often small or poorly fitted; inconclusive = mostly compound fluorescence or quenching in the first reads; inactive = flat curves in all reads;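 further: potency means the concentration at half of the fitted maximal effect; 0% = DMSO wells and 100% = buffer wells lacking importin beta; nearly all actives have a fitted effect of over 15% in size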
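FRET biosensor (snurportin 1 IBB flanked by EYFP and cerulean), 50 nM, with compound 5 min, then 0.125 microM importin beta in PBS, 1 mM DTT, 0.02% Tween-20, 0.1% BSA. CFP/YFP ratio read after 45 min at room temperature; pre-read flags interference.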
miR-21 reporter: raises the signal of a miR-21 reporter; HeLa miR-21 FLuc reporter, luciferase, 48 h; Potency, µM (titrated, usually from 38.3 µM), for the others: at the top dose reporter change, positive = more light; 340,000 tested, under 10 active; AID 2288; active = well fitted rising curve with a large enough effect; inconclusive = small, poorly fitted or top-dose-only effect; inactive = no such curve, though single readings can be large or run the other way;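 further: % of control where 0% means no effect; miR-21 action dims this reporter so a rising signal means less miR-21 action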
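HeLa miR-21-FLuc reporter line, endogenous miR-21; 2000 cells/well in DMEM/10% FBS; compound titration up to ~40uM final, 48 h, 37 degree Celsius; luciferase detection reagent, 15 min lysis, CCD luminescence.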
The depositor's hits bear a star; ? = inconclusive; · = no result given; & = joins results of further samples.

SMILES	Rango release inh	GLA inh pH 4.5	Rango-impB inh	miR-21 reporter
Cc1ccc(NC(=O)Cc2ccsc2)cc1Cl	0%	·	0.1%	-32%
O=C(Nc1cccc(C(F)(F)F)c1)C12CC3CC(CC(C3)C1)C2	13%	-2	4.4%	-11%
COc1ccc(C(=O)CCNc2ccc(C)c(Cl)c2)cc1	-8%	15	-2.5%	-13%
CCOC(=O)C1=CN(Cc2ccc(Br)cc2)S(=O)(=O)NC1C (stereo unspecified)	7%	·	?	·
COc1ccc(Cc2nnc(SC(C)C(=O)Nc3ccc(C(N)=O)cc3)o2)cc1 (stereo unspecified)	14%	·	-0.1%	·
CN(C)S(=O)(=O)c1cccc(NC(=O)Cn2cc(C(F)(F)F)cc(Cl)c2=O)c1	-4%	2	-1.4%	-6%
CCOc1nc(Nc2ccccc2F)nc(OCC)n1	9%	·	-0.1%	-17%
CCOC(=O)C1CCN(C(=O)CN(c2cccc(C(F)(F)F)c2)S(C)(=O)=O)CC1	1%	6	2.3%	0%
CC(CN1C(C)CCCC1C)OC(=O)c1ccccc1F (stereo unspecified)	8%	·	0.7%	2%
CCOC(=O)C1=C(C)N=C2c3ccccc3C(=O)C2C1c1ccc(C)cc1 (stereo unspecified)	10%	2	-0.1%	-11%
O=C(COc1cccnc1[N+](=O)[O-])Nc1ccc(N2CCOCC2)cc1	-3%	4	-2.9%	-6%
Cc1ccc(CNC(=O)C2(C(F)(F)F)C/C(=C\Cc3ccccc3)CCCO2)o1 (stereo unspecified)	14%	·	?	4%
COc1ccc(CC(=O)Nc2ccc(N3CCCC3)c(C)c2)cc1	7%	·	-1.5%	-19%
Nn1c(SCC(=O)Nc2ccccc2F)nnc1-c1cccnc1	-4%	-1	2.7%	-3%
O=C(c1ccc(S(=O)(=O)N2CCCCC2)cc1)N1CCc2ccccc2C1	1%	3	-2.8%	-4%
CCOC(O)[C@H]1N[C@@H](c2ccc(Cl)cc2)[C@@H]([N+](=O)[O-])[C@@H]1c1ccccc1 (stereo partly specified)	-12%	-9	1.8%	-23%
CN(C)/C=N/C(=S)Nc1ccc(Cl)cc1	3%	7	-1.2%	-44%
CCS(=O)(=O)c1nc(S(=O)(=O)c2ccc(Cl)cc2)c(N2CCN(C)CC2)s1	2%	·	1.5%	12%
O=C(N[C@@H](Cc1c[nH]c2ccccc12)C(=O)O)C1CCN(S(=O)(=O)c2ccc(Cl)cc2)CC1	-10%	·	-0.3%	-1%
COc1ccc(NC(=O)C(CC(C)C)NC(=O)C2CCC(C)CC2)c(OC)c1 (stereo unspecified)	1%	3	0.4%	-3%
CCN(CC)S(=O)(=O)c1ccc(N2CCOCC2)c(NC(=O)c2cccc3ccccc23)c1	1%	-13	3.4%	-12%
O=C(Nc1ccc(N2CCOCC2)cc1N1CCOCC1)c1cccc([N+](=O)[O-])c1	-1%	·	-2.2%	-3%
O=C(NC(=S)NC1C2CC3CC(C2)CC1C3)c1ccccc1 (stereo unspecified)	-5%	·	0.2%	-28%
O=C(NCC1OCCc2ccccc21)c1ccc(NC(=O)c2ccccc2Cl)cc1 (stereo unspecified)	-8%	9	0.2%	22%
Cc1c(C(=O)NCCS(=O)(=O)N2CCN(c3ccccc3F)CC2)cccc1[N+](=O)[O-]	2%	·	2.3%	-4%

(listing goes on)
SMILES	Rango release inh	GLA inh pH 4.5	Rango-impB inh	miR-21 reporter
O=C(COc1cc(Cl)ccc1Cl)N1CCNC1=O	7%	·	1.5%	·
C[C@H]1CCC/C=C/[C@@H]2C[C@H](O)C[C@H]2[C@H](O)[C@H](S(=O)c2ccc(O)cc2)CC(=O)O1 (stereo partly specified)	12%	·	-1.8%	·
C#CCNc1c2c(nc3ncnn13)CC(C)CC2 (stereo unspecified)	1%	4	-1.2%	-1%
O=C(c1ccc(F)cc1)N1CCC2(CC1)NCCc1[nH]cnc12	-1%	·	-4.0%	-2%
CCOC(=O)CNC(=O)c1cc(C)oc1C	·	-7	·	-3%
Cc1[nH]n(C(N)=S)c(=O)c1N=Nc1ccc(S(=O)(=O)N2CCCC2)cc1	6%	-12	-0.1%	-25%
O=C(c1cccs1)N1CCCC(c2nc3c(nnn3Cc3cccc(Cl)c3)c(=O)[nH]2)C1 (stereo unspecified)	-20%	·	-0.8%	-20%
N#CCC(=O)Nc1ccc(C(=O)OCC(=O)NC2CCCCCC2)cc1	-3%	·	0.7%	·
COc1ccccc1C1C(C#N)=C(N)N(N(C)C)C2=C1C(=O)CC(C)(C)C2 (stereo unspecified)	5%	·	-5.6%	-6%
CCOC(=O)c1sc(NC(=O)C(CC)OC(=O)c2ccco2)nc1C (stereo unspecified)	-9%	·	-1.1%	-10%
CN(C)/N=C/c1ccc(/C=N/NC(N)=S)o1	-27%	-8	?	0%
O=C(CNc1ccccc1)Nc1ccc(F)cc1	0%	-3	-0.2%	-34%
O=C(N/C(=C/c1ccc(Cl)cc1)C(=O)N1CCOCC1)c1ccccc1	?	·	1.0%	2%
CCOC(=O)c1cc(C)sc1/N=C/C1C(=O)CC(C)(C)CC1=O	-7%	2	?	-3%
O=C(NCc1ccccn1)c1c(-c2ccccc2)sc2ccccc12	0%	·	?	·
Cc1ccc(N(CC(=O)NC(C)(C)C)C(=O)CNC(=O)c2cccs2)cc1C	16%	-3	0.9%	-2%
O=C(c1ccccc1F)N(Cc1cccs1)C1CCS(=O)(=O)C1 (stereo unspecified)	-13%	·	1.5%	0%
COc1cc(NC(=O)COc2cccc(OC)c2)cc(OC)c1	1%	-4	-0.5%	-8%
Cc1[nH]n(-c2ccc([N+](=O)[O-])cc2)c(=O)c1C=NCCN1CCN(C(=O)c2ccccc2F)CC1	9%	-10	-2.3%	-2%
CN1CCN(c2nc3ccccn3c(=O)c2C=C(C#N)C#N)CC1	?	·	?	-2%
CN(C(=O)/C=C/c1ccccc1)C1CCS(=O)(=O)C1 (stereo unspecified)	9%	2	0.0%	-1%
Cc1occc1C(=O)NCc1ccccn1	-5%	-2	-6.7%	-2%
CC1(C)COC(/C=C/c2cccc([N+](=O)[O-])c2)=N1	11%	6	-1.8%	?
COc1cccc(NC(=O)c2ccc(N3C(=O)C4CC=C(C)CC4C3=O)cc2)c1 (stereo unspecified)	0%	·	-0.6%	-20%
CCNc1nc(NC(C)(C)C)nc(SC(C(C)=O)C(C)=O)n1	-8%	3	?	15%

Whole records, quoted from the list:
Record of CCNc1nc(NC(C)(C)C)nc(SC(C(C)=O)C(C)=O)n1 → Rango release inh: -8%; GLA inh pH 4.5: 3; Rango-impB inh: ?; miR-21 reporter: 15%
Record of Cc1ccc(N(CC(=O)NC(C)(C)C)C(=O)CNC(=O)c2cccs2)cc1C → Rango release inh: 16%; GLA inh pH 4.5: -3; Rango-impB inh: 0.9%; miR-21 reporter: -2%

Going on with the list:
SMILES	Rango release inh	GLA inh pH 4.5	Rango-impB inh	miR-21 reporter
Cn1c(SCC(=O)Nc2ccc(C(N)=O)cc2)nnc1-c1cccs1	0%	·	-4.9%	0%
COc1ccc(-c2csc(N3CCC(C(N)=O)CC3)n2)cc1	30%	·	0.0%	·
NC(=O)COC(=O)CC12CC3CC(CC(C3)C1)C2	-11%	11	2.8%	-1%
O=C(CC1CCCC1)Nc1ccc(Br)cc1	11%	·	1.9%	-56%
O=C(CN1CCN(C(=O)c2ccccc2)CC1)Nc1ccc(Cl)cc1F	-3%	·	0.5%	0%
COc1ccc(S(=O)(=O)N(C)C)cc1NC(=O)[C@H](Cc1ccccc1)N1C(=O)c2ccccc2C1=O	-13%	-5	?	-8%
CCN(C(C)=O)c1cccc2ccccc12	-8%	0	2.3%	-8%
CCOC(=O)Cc1ccc(NC(=O)c2ccccc2Br)cc1	6%	3	-1.7%	6%
COc1cc(/C=N/OCC(=O)Nc2ccc(OC(F)F)cc2)ccc1OCc1ccccc1	?	-8	?	-13%
COc1ccc(-c2nc(CS(=O)CC(=O)NCc3ccc(Cl)cc3)c(C)o2)cc1 (stereo unspecified)	20%	-10	0.8%	-5%
COc1ccc(-c2cc(C(=O)NCC(c3ccccc3)N(C)C)c3ccccc3n2)cc1OC (stereo unspecified)	2%	·	-0.2%	11%
Cc1ccc(NC(=O)CN(C)S(=O)(=O)c2cccc3cccnc23)c(C)c1	30%	0	-1.3%	-1%&-12%
COc1ccc(NC2=NCC(=O)N2Cc2cccs2)cc1	-14%	?	-1.9%	-2%
CC(=O)Cc1nsc(NC(=O)c2oc(-c3ccccc3Cl)cc2C)n1	1%	-7	?	-2%
Nc1cc(N)nc(SCC(=O)N2CCc3ccccc32)n1	2%	-5	1.9%	-45%
CC(C)Cc1ccc(C(C)C(=O)Nc2nccs2)cc1 (stereo unspecified)	-15%	-3	-3.7%	2%
Cc1cc(C)cc(NC(=O)C2CCN(S(=O)(=O)c3c(C)n[nH]c3C)CC2)c1	1%	2	-4.1%	-9%
O=C(N/N=C/c1ccc([N+](=O)[O-])cc1)c1ccccc1OCc1ccccc1	1%	·	1.8%	2%
Cn1cc(CCCC(=O)NCc2ccccc2)c2ccccc21	-20%	·	0.2%	-1%
COc1ccc(C2C(C(C)=O)=C(O)C(=O)N2c2nccs2)c(OC)c1 (stereo unspecified)	-9%	0	-4.7%	-7%
CC1Cc2ccccc2N1C(=O)CN1C(=O)C(=O)N(Cc2ccccc2)C1=O (stereo unspecified)	0%	-5	1.3%	-2%
CCOc1ccc(CN(C)CC(=O)Nc2ccc3c(c2)CCC3)cc1OC	-17%	-6	0.3%	-4%
CCC(C)Nc1nc2ccccc2n2c(C)nnc12 (stereo unspecified)	-13%	·	-3.1%	-5%
COC(C(=O)Nc1ccc(F)c(F)c1)c1ccccc1 (stereo unspecified)	0%	·	-1.6%	·
O=C(NNC(=O)c1ccccc1C(=O)O)c1ccc(-c2ccccc2)cc1	·	0	·	-4%

The results go on.
SMILES	Rango release inh	GLA inh pH 4.5	Rango-impB inh	miR-21 reporter
O=C(NCCCCNC(=O)c1cccs1)c1cccs1	7%	-11	-4.0%	-10%
Cc1ccc(C(=O)N2CCN(c3ccc(Cl)cc3)CC2)cc1	-3%	-5	-1.3%	-2%
O=C(COC(=O)C1CCC(=O)N1)Nc1ccc(Br)cc1 (stereo unspecified)	-7%	0	-0.4%	1%
C=CCCC(=O)N1CCC(n2nccc2NC(=O)c2ccc(OC)cc2)CC1	-10%	·	-0.4%	-17%
CCOC(=O)N1CCN(C(=O)c2cccc(NC3=NC4CS(=O)(=O)CC4S3)c2)CC1 (stereo unspecified)	1%	0	-0.7%	-1%
Cn1c(=O)n(C)c2cc(/C=N/NC(=O)c3cc4cc(Br)ccc4o3)ccc21	-12%	5	3.0%	1%
Cc1nc(C(=O)NCC(=O)c2ccccc2)c(C(F)(F)F)o1	22%	-5	0.3%	-8%
COCCCNC(=S)Nc1ccc(C)cc1	-3%	-10	-3.6%	-12%
CC1CN(C(=O)Nc2cccc(C(F)(F)F)c2)CC(C)O1 (stereo unspecified)	6%	-3	0.4%	0%
Cn1cnc([N+](=O)[O-])c1S(=O)(=O)c1cccc(Cl)c1	11%	0	-2.6%	?
COc1ccc(/C=C(\C#N)C(=O)Nc2cccc(C)n2)cc1	-2%	·	-1.2%	0%
CCOC(=O)C1=CN(Cc2cccc(F)c2)S(=O)(=O)N(CC)C1c1cccc(OC)c1 (stereo unspecified)	-10%	·	7.8%	·
CC1(C)COC(c2cccn2Cc2ccc(F)cc2Cl)=N1	1%	-5	-3.6%	-6%
Cc1ccc(C2(C)NC(=O)N(CC(=O)Nc3ccc(N4CCOCC4)cc3N3CCOCC3)C2=O)cc1 (stereo unspecified)	-6%	·	3.0%	·
O=C(NC1CCCCC1)c1ccc(-c2ccccc2)cc1	-7%	·	?	·
CCOC(=O)c1[nH]ncc1CN1CCC(Cc2cccc(OC)c2)(C(=O)OCC)CC1	0%	-21	0.5%	2%
COc1cc(C(=O)OCc2ccccc2C#N)ccc1OCC(=O)N1CCOCC1	-15%	·	1.1%	·

In a second layout: results already given
Compound,Rango release inh,GLA inh pH 4.5,Rango-impB inh,miR-21 reporter
Cc1nc(C(=O)NCC(=O)c2ccccc2)c(C(F)(F)F)o1,22%,-5,0.3%,-8%
COCCCNC(=S)Nc1ccc(C)cc1,-3%,-10,-3.6%,-12%
CC1CN(C(=O)Nc2cccc(C(F)(F)F)c2)CC(C)O1 (stereo unspecified),6%,-3,0.4%,0%
Cn1cnc([N+](=O)[O-])c1S(=O)(=O)c1cccc(Cl)c1,11%,0,-2.6%,?

Only part of the results is shown; count on the stated rates, not on these rows.
